Screening data from PubChem BioAssay.
NOMO-1 viab – STK33 inhibitor candidate reducing NOMO-1 cell viability | NOMO-1 AML viability, CellTiter-Glo luminescence, 72 h | inhibition, % (test concentration not listed) | hit rate 7.5% among 37,000;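 active means most replicates above 80%; inconclusive means exactly half above 80%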;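 further: wells of about 30 µL received 25 nL stock; 0% = median of vehicle wells and 100% = reference inhibitor level; the first replicate is given; inactives centre near 10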
Active calls of the source: *; ? = inconclusive. These rows are one share of the data; the hit share may differ from the screen's.

A first look:
item	molecule	NOMO-1 viab
1	C[C@@H]1CN([C@@H](C)CO)C(=O)c2cccc(NC(=O)c3ccc(-c4nccs4)cc3)c2O[C@@H]1CN(C)C(=O)Nc1ccc(C(F)(F)F)cc1	?
2	O=C(Nc1ccc(F)cc1F)c1cccnc1Sc1cccs1	12.7
3	C[C@H](CO)N1C[C@H](C)[C@H](CN(C)Cc2ccc(C(=O)Nc3ccccc3N)cc2)Oc2ccc(NC(=O)NC3CCCCC3)cc2C1=O	97.8*
4	C[C@@H]1CN([C@H](C)CO)C(=O)c2cc(NC(=O)CCN3CCOCC3)ccc2O[C@H]1CN(C)C(=O)Nc1cccc2ccccc12	8.8
5	Cc1noc(C)c1NC(=O)N(C)C[C@@H]1Oc2ccc(NC(=O)Nc3ccc4c(c3)OCO4)cc2CC(=O)N([C@@H](C)CO)C[C@@H]1C	13.7
6	COc1ccc(CCNC(=O)CSc2nc3ccccc3nc2N2CCCC2)cc1OC	35.3
7	CC(C)c1ccc(NC(=O)CSc2n[nH]c(-c3ccc(Cl)cc3)n2)cc1	44.5

The whole of this part, from the start:
item	molecule	NOMO-1 viab
1	C[C@@H]1CN([C@@H](C)CO)C(=O)c2cccc(NC(=O)c3ccc(-c4nccs4)cc3)c2O[C@@H]1CN(C)C(=O)Nc1ccc(C(F)(F)F)cc1	?
2	O=C(Nc1ccc(F)cc1F)c1cccnc1Sc1cccs1	12.7
3	C[C@H](CO)N1C[C@H](C)[C@H](CN(C)Cc2ccc(C(=O)Nc3ccccc3N)cc2)Oc2ccc(NC(=O)NC3CCCCC3)cc2C1=O	97.8*
4	C[C@@H]1CN([C@H](C)CO)C(=O)c2cc(NC(=O)CCN3CCOCC3)ccc2O[C@H]1CN(C)C(=O)Nc1cccc2ccccc12	8.8
5	Cc1noc(C)c1NC(=O)N(C)C[C@@H]1Oc2ccc(NC(=O)Nc3ccc4c(c3)OCO4)cc2CC(=O)N([C@@H](C)CO)C[C@@H]1C	13.7
6	COc1ccc(CCNC(=O)CSc2nc3ccccc3nc2N2CCCC2)cc1OC	35.3
7	CC(C)c1ccc(NC(=O)CSc2n[nH]c(-c3ccc(Cl)cc3)n2)cc1	44.5
8	CCOc1ccccc1NC(=O)c1ccsc1NC(=O)c1ccoc1C	5.1
9	C[C@H]1CN([C@@H](C)CO)C(=O)Cc2cc(NC(=O)CCN3CCOCC3)ccc2O[C@@H]1CN(C)Cc1ccc2c(c1)OCO2	-8.4
10	Cc1nc(SCC(=O)c2cccc([N+](=O)[O-])c2)nc2c1CCCC2	-16.5
11	C[C@@H]1CN([C@H](C)CO)C(=O)Cc2cc(NC(=O)CCCCCC(=O)Nc3ccccc3N)ccc2O[C@H]1CN(C)S(=O)(=O)c1ccc(F)cc1	3.6
12	Cc1cc(C(=O)Nc2cccc3c2O[C@H](CN(C)C(=O)Nc2cccc4ccccc24)[C@H](C)CN([C@H](C)CO)C3=O)n(C)n1	0.7
13	CN1C=C(c2ccccc2)N(c2ccccc2)C1	10.6
14	C[C@H](CO)N1C[C@H](C)[C@@H](CN(C)S(=O)(=O)c2ccc(Cl)cc2)Oc2c(NC(=O)c3ccc(-c4nccs4)cc3)cccc2C1=O	22.5
15	CC(C)NC(=O)Nc1ccc2c(c1)CC(=O)N([C@@H](C)CO)C[C@H](C)[C@H](CN(C)S(=O)(=O)c1ccccc1)O2	10.7
16	C[C@H]1CN([C@@H](C)CO)C(=O)Cc2cc(NC(=O)Cc3ccccc3)ccc2O[C@H]1CN(C)Cc1ccc(Cl)c(Cl)c1	?
17	Cc1ccc(S(=O)(=O)N(C)C[C@@H]2OCCCC[C@@H](C)Oc3ccc(NC(=O)CCC(F)(F)F)cc3C(=O)N([C@H](C)CO)C[C@@H]2C)cc1	2.5
18	C[C@H](CO)N1C[C@H](C)[C@@H](CN(C)C(=O)Nc2cccc3ccccc23)Oc2c(NS(=O)(=O)c3cccs3)cccc2C1=O	21.7
19	C[C@@H]1CCCCO[C@@H](CN(C)C(=O)Nc2cccc3ccccc23)[C@@H](C)CN([C@H](C)CO)C(=O)c2cc(NC(=O)NC3CCCCC3)ccc2O1	58.5
20	C[C@@H]1CCCCO[C@H](CN(C)S(=O)(=O)c2cn(C)cn2)[C@@H](C)CN([C@H](C)CO)C(=O)c2cc(NC(=O)c3ccncc3)ccc2O1	27.6
21	CC(C)NC(=O)N(C)C[C@@H]1Oc2c(cccc2N(C)C)C(=O)N([C@H](C)CO)C[C@@H]1C	39.0
22	CN(CC(=O)Nc1ccncc1)S(=O)(=O)c1ccccc1	-13.7
23	COc1ccc(S(=O)(=O)N(C)CC(=O)Nc2ccc(Br)cc2F)cc1	7.0
24	COc1ccc(S(=O)(=O)N(C)CC(=O)Nc2ccc(Br)cc2F)cc1OC	0.4
25	C[C@H](CO)N1C[C@H](C)[C@H](CN(C)C(=O)Nc2cccc3ccccc23)Oc2ccc(NC(=O)Cc3ccccc3)cc2CC1=O	5.2
26	CCN(CC)c1cc(-c2cccs2)nc(SCC(=O)c2cccs2)c1C#N	122.1*
27	CCCc1nc2c([nH]1)C(c1cccc(O)c1)C(C#N)=C(N)O2 (configuration not stated)	23.9
28	C[C@@H]1CN([C@H](C)CO)C(=O)c2cccc(NC(=O)Nc3ccc(F)cc3)c2O[C@@H]1CN(C)S(=O)(=O)c1cn(C)cn1	0.6
29	C[C@@H]1CN([C@@H](C)CO)C(=O)c2cccc(NC(=O)c3ccncc3)c2O[C@H]1CN(C)Cc1ccc(C(F)(F)F)cc1	18.1
30	COc1ccc(C2CC(=O)c3c(O)cc(O[C@@H]4O[C@H](CO[C@@H]5O[C@@H](C)[C@H](O)[C@@H](O)[C@H]5O)[C@@H](O)[C@H](O)[C@H]4O)cc3O2)cc1 (some centres not stated)	12.3
31	C[C@@H]1CN([C@H](C)CO)C(=O)c2cc(NC(=O)CCN3CCOCC3)ccc2O[C@@H]1CN(C)S(=O)(=O)c1cccs1	14.4
32	CCOc1cc(N2CCOCC2)c(OCC)cc1NS(=O)(=O)CC	8.9
33	C[C@@H]1CN([C@H](C)CO)C(=O)c2cc(NC(=O)CCCCCC(=O)Nc3ccccc3N)ccc2O[C@@H]1CN(C)S(C)(=O)=O	1.5
34	COc1ccc(C)cc1NC(=O)C1CCCN(S(=O)(=O)c2ccc(C)cc2)C1 (configuration not stated)	17.4
35	CC(C)c1ccc(C2C(C#N)=C(N)C(C#N)(C#N)C3=CCN(C)CC32)cc1 (configuration not stated)	105.4*
36	C[C@@H]1CCCCO[C@@H](CN(C)S(=O)(=O)c2ccc(F)cc2)[C@@H](C)CN([C@H](C)CO)C(=O)c2cc(NS(=O)(=O)c3cn(C)cn3)ccc2O1	7.5
37	C[C@@H]1CN([C@H](C)CO)C(=O)Cc2cc(NC(=O)Nc3ccc(C(F)(F)F)cc3)ccc2O[C@@H]1CN(C)S(=O)(=O)c1ccc(F)cc1	89.5*
38	O=C(NCc1ccccn1)c1cc2nc(-c3ccccc3)cc(-c3ccccc3)n2n1	19.7
39	C[C@@H]1CN([C@H](C)CO)C(=O)c2cccc(NC(=O)NC3CCCCC3)c2O[C@@H]1CN(C)C	-15.4
40	Cc1ccc(S(=O)(=O)N(C)C[C@H]2Oc3c(NC(=O)c4cnccn4)cccc3C(=O)N([C@@H](C)CO)C[C@@H]2C)cc1	-17.3
41	COc1ccc(S(=O)(=O)N(C)C[C@H]2Oc3ccc(NC(=O)Nc4ccc(F)cc4)cc3C(=O)N([C@@H](C)CO)C[C@H]2C)cc1	0.9
42	COC(=O)c1ccccc1NC(=O)c1cccc(NC(=O)CSc2ccccc2)c1C	15.3
43	N/C(=N/C(=O)N1CCOCC1)c1ccccc1	-15.6
44	O=C(CSc1nc(-c2ccccc2)cc(C(F)(F)F)n1)Nc1ccc2c(c1)CCC2	11.9
45	C[C@H](CO)N1C[C@H](C)[C@H](CN(C)CC2CCCCC2)Oc2ccc(NC(=O)Nc3ccc(F)cc3)cc2C1=O	13.1
46	Cc1ccc(S(=O)(=O)N(C)Cc2nc(-c3ccc(Br)cc3)no2)cc1	10.5
47	CCc1ccc(NC(=O)CSc2ncnc3sc4c(c23)CCC(C)C4)cc1 (configuration not stated)	46.0
48	Cc1nnc(SCc2ccc(CSc3nnc(C)c(=O)[nH]3)cc2)[nH]c1=O	-3.3

Later entries:
no.	SMILES	NOMO-1 viab
49	C[C@@H]1CN([C@@H](C)CO)C(=O)c2cccc(NS(=O)(=O)c3cccs3)c2O[C@H]1CN(C)C(=O)Nc1ccc2c(c1)OCO2	15.3
50	C[C@@H]1CN([C@@H](C)CO)C(=O)c2cc(NC(=O)Cc3cn(C)c4ccccc34)ccc2O[C@@H]1CN(C)S(=O)(=O)c1ccccc1	12.6
51	C[C@H](CO)N1C[C@H](C)[C@H](CN(C)Cc2ccncc2)Oc2ccc(NC(=O)CCCCCC(=O)Nc3ccccc3N)cc2CC1=O	49.3
52	NC(=O)CSc1nnc(-c2ccncc2)n1-c1ccc(Br)cc1	-11.3
53	C[C@@H]1CN([C@H](C)CO)C(=O)c2cc(N(C)C)ccc2O[C@@H]1CN(C)C(=O)Nc1ccc(C(F)(F)F)cc1	-11.1
54	C[C@H](CO)N1C[C@H](C)[C@@H](CN(C)S(=O)(=O)c2cn(C)cn2)Oc2ccc(NC(=O)NC3CCCCC3)cc2C1=O	22.5
55	Cn1c(NCc2c(O)ccc3ccccc23)nc2ccccc21	19.9
56	C=C1C(=O)O[C@H]2C3=C(C)CCC[C@]3(C)C(=O)C[C@@H]12	121.4*
57	CS(=O)(=O)N(CC(=O)Nc1ccc(Br)c(Cl)c1)c1cccc([N+](=O)[O-])c1	12.5
58	Cc1ccc(N(C(C)C(=O)Nc2c(C)cccc2C)S(C)(=O)=O)cc1 (configuration not stated)	12.9
59	Cc1ccc(NC(=O)COc2ccc(C(=O)Nc3ccc(Cl)cc3)cc2)cc1	2.7
60	C[C@@H]1CN([C@@H](C)CO)C(=O)c2cccc(NS(C)(=O)=O)c2O[C@@H]1CN(C)Cc1ccc2c(c1)OCO2	8.5
61	O=C(c1ccco1)n1nc(-c2ccccc2)nc1NCc1ccco1	-26.5
62	Cc1ccc(S(=O)(=O)Nc2ccc3c(c2)C(=O)N([C@H](C)CO)C[C@@H](C)[C@H](CN(C)C(=O)Nc2ccccc2)O3)cc1	-13.1
63	Cc1ccc(NC(=O)COc2ccc3cc(-c4ccc(Cl)cc4)c(=O)oc3c2)cc1	1.5
64	Cc1ccc(-c2cc(C(F)(F)F)n3nc(C(=O)NCc4cc(C)n(C)n4)cc3n2)cc1C	66.4
65	CNC[C@@H]1OCCCC[C@@H](C)Oc2ccc(NS(=O)(=O)c3ccc(OC)cc3)cc2C(=O)N([C@H](C)CO)C[C@@H]1C	0.6
66	Cc1noc(C)c1S(=O)(=O)Nc1ccc2c(c1)CC(=O)N([C@@H](C)CO)C[C@H](C)[C@H](CN(C)Cc1ccncc1)O2	-3.0
67	C[C@H]1CN([C@@H](C)CO)C(=O)c2cc(NS(=O)(=O)c3ccccc3)ccc2O[C@@H]1CN(C)C(=O)Nc1ccc(C(F)(F)F)cc1	-0.1
68	Cc1ccc(S(=O)(=O)Nc2ccc3c(c2)C(=O)N([C@H](C)CO)C[C@H](C)[C@H](CN(C)Cc2ccc(Cl)c(Cl)c2)O3)cc1	91.0*
69	COc1ccc(C(=O)CSc2nc(C)cc(=O)[nH]2)cc1C	18.5
70	CCCN(C)C[C@@H]1OCCCC[C@@H](C)Oc2ccc(NS(=O)(=O)c3ccccc3)cc2C(=O)N([C@H](C)CO)C[C@@H]1C	18.2
71	CN(C)CCNc1nc2c(c(=O)n(C)c(=O)n2C)n1Cc1c(F)cccc1Cl	17.7
72	C[C@@H]1CN([C@@H](C)CO)C(=O)Cc2cc(NS(=O)(=O)c3cn(C)cn3)ccc2O[C@@H]1CN(C)C	-14.6
73	C[C@@H]1CN([C@H](C)CO)C(=O)c2cccc(NC(=O)c3cnccn3)c2O[C@@H]1CN(C)C(=O)Nc1ccc(C(F)(F)F)cc1	-2.3
74	Cc1ccc(S(=O)(=O)Nc2ccc3c(c2)CC(=O)N([C@@H](C)CO)C[C@@H](C)[C@@H](CN(C)S(C)(=O)=O)O3)cc1	-3.8
75	C[C@H](CO)N1C[C@H](C)[C@H](CN(C)Cc2ccc(-c3ccccc3)cc2)Oc2ccc(NS(=O)(=O)c3ccccc3)cc2C1=O	93.2*
76	COc1ccc(NC(=O)Nc2ccc3c(c2)CC(=O)N([C@@H](C)CO)C[C@H](C)[C@@H](CN(C)CC2CCCCC2)O3)cc1	?
77	CC(C)NC(=O)N(C)C[C@H]1Oc2c(NC(=O)c3cnccn3)cccc2C(=O)N([C@H](C)CO)C[C@@H]1C	4.0
78	COc1ccc(NC(=O)Nc2ccc3c(c2)C(=O)N([C@H](C)CO)C[C@H](C)[C@@H](CN(C)Cc2ccc4c(c2)OCO4)OCCCC[C@@H](C)O3)cc1	21.1
79	C[C@H]1CN([C@@H](C)CO)C(=O)c2cc(N(C)C)ccc2O[C@H]1CN(C)S(=O)(=O)c1ccccc1	17.7
80	COc1ccc(NC(=O)c2ccccc2OCC(=O)Nc2ccccc2C(F)(F)F)c(C)c1	-6.0
81	COC(=O)c1c(NC(=O)CC2Sc3ccccc3NC2=O)sc(C)c1C (configuration not stated)	5.4
82	C[C@@H]1CN([C@H](C)CO)C(=O)c2cc(NC(=O)Cc3ccccc3)ccc2O[C@H]1CN(C)C(=O)Nc1cccc2ccccc12	1.4
83	COc1ccc(Cl)c(Cn2c(NCC3CCCO3)nc3c2c(=O)n(C)c(=O)n3C)c1 (configuration not stated)	32.3
84	COc1cc([N+](=O)[O-])ccc1NC(=S)NCc1ccco1	25.3
85	CNC[C@H]1Oc2ccc(NC(=O)C3CCCCC3)cc2C(=O)N([C@@H](C)CO)C[C@@H]1C	28.4
86	Cc1ccnc(NS(=O)(=O)c2cc([N+](=O)[O-])ccc2C)c1	6.4
87	C[C@H]1CN([C@@H](C)CO)C(=O)c2cccc(NC(=O)Nc3ccc(F)cc3)c2O[C@@H]1CN(C)C(=O)Nc1ccccc1	41.9
88	COc1ccc(NC(=O)Nc2cccc3c2O[C@H](CN(C)C(=O)Nc2c(C)noc2C)[C@H](C)CN([C@H](C)CO)C3=O)cc1	-2.7
89	O=S(=O)(c1ccc(Cl)cc1)N1CCN(C(=S)NCc2ccco2)CC1	-25.5
90	Cc1csc2nc(CSc3ccc(Cl)cc3)c(Br)n12	22.0
